Mtb growth: M. tuberculosis H37Rv growth inhibitors, H37Rv strain (AID 1626); inhibition, % at 10 µM, or IC50 in µM where a hit was titrated; actives 0.95% (n = 220,000); M. tuberculosis H37Rv growth inhibition; higher % means a stronger effect;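 active = confirmed in a dose series; inconclusive = inhibition above 80% but not taken into the dose series; inactive = below 80% or under 30% at every dose of the series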;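 also: bacteria incubated seven days before Alamar blue readout; 0% = bacteria only wells and 100% = bacteria with antibiotic wells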
Arbovirus inh: blocks arbovirus infection; arbovirus infection cell-based antiviral screen; inhibition, % at 10 µM; actives 0.37% (n = 200,000); AID 1251;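 active = inhibition from about 30%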;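 also: bluetongue infection of BSR cells; cell survival read as ATP light after 72 h; 0% = infected wells without compound and 100% = uninfected wells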
Mtb bLac sens: beta-lactam sensitization of Mtb H37Rv; M. tuberculosis H37Rv growth with meropenem, percent inhibition; hits of this screen are not shown here; AID 434955; inhibition, % at 25 µM; actives 0.27% (n = 330,000);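 active = about 74% or more and at least 40 points above the plate without the antibiotic, then above 30% in a dose series; inconclusive = first-round hits that could not be retested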;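 also: growth measured after seven days incubation then overnight dye step; 0% = bacteria only wells and 100% = bacteria with antibiotic; twin plates without the antibiotic show which effects depend on it; some results filed as inactive read as strong as hits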
RecA splice inh: inhibitors of M. tuberculosis RecA intein splicing; P9WHJ3; cell-free RecA intein splicing, fluorescence; inhibition, %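 (about 9 µM by stock and volumes)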; actives 0.75% (n = 290,000); in the data active = inhibition above about 30%; inconclusive = no clear call, values can overlap the other calls;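 also: 0% = vehicle wells and 100% = reference inhibitor control wells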
Target sequence (P9WHJ3 whole entry, looked up, canonical isoform): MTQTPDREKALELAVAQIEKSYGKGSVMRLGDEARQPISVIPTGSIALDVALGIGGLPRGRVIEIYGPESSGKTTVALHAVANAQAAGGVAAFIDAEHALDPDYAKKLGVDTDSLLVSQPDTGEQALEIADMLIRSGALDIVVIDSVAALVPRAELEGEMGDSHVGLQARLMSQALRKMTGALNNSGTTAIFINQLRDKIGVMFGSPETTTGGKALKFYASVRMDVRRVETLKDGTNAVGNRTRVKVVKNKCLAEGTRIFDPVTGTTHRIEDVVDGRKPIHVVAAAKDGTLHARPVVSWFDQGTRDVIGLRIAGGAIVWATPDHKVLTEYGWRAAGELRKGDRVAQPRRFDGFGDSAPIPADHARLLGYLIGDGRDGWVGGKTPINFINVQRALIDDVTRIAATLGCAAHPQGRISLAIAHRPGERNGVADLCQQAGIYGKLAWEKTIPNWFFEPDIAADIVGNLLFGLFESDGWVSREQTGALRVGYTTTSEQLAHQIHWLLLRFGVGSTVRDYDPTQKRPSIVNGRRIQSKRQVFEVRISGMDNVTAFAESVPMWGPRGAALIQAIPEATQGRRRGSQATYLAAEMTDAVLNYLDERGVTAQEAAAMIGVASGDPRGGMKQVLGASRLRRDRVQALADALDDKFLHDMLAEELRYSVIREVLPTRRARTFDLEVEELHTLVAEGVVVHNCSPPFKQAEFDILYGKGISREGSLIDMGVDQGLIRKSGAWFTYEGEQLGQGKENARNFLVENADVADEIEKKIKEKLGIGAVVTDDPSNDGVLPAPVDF
YopH inh: YopH (Yersinia) phosphatase inhibition. AID 898. fluorescence Ex485/Em525. actives 0.16% (n = 140,000). inhibition, %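 (about 10 µM by stock and volumes)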;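 active = inhibition of 50% or more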;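 also: controls were vehicle for no effect and minimum signal wells for full effect; inactives centre near -20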
Arbovirus inh repeat: recorded beside Arbovirus inh, whose call it bears; inhibition, %; measured here: 10K subset replicate screen; many hits read low in the repeat;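 first of two repeat runs on a subset; 0% = infected and 100% = uninfected wells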
* = called active by the depositor.

O=C(/C=C/c1ccc(Cl)cc1)NC1CCS(=O)(=O)C1 (stereo unspecified) was read as Mtb growth -7%, Arbovirus inh 2, Mtb bLac sens 0 and RecA splice inh -2.1.
Screening Cc1ccc(OCC(=O)NNC(=O)c2ccc(NC(=O)C3CC3)cc2)c(C)c1 returned Mtb bLac sens 3 and RecA splice inh 0.8.
`CCCCn1c(Cc2ccccc2)nnc1SCC(=O)N1CCOCC1` gave Mtb growth -4%, Arbovirus inh 5, Mtb bLac sens -4, RecA splice inh 2.4 and YopH inh -29.
Nc1c(NCCN2CCOCC2)c2ccccc2oc1=O was read as Mtb growth -11%, Arbovirus inh -2, Mtb bLac sens 2, RecA splice inh -0.3 and YopH inh -5.
Screening CCOC(=O)CC1C(=O)NCCN1C(=O)c1c(Cl)cccc1Cl (stereo unspecified) returned Mtb bLac sens 3 and RecA splice inh 1.6.
`COc1ccccc1/C=C1\SC(=S)N(CCC(=O)NNC(=O)c2ccccc2OC)C1=O` gave Mtb bLac sens 3 and RecA splice inh -0.2.
For O=C(NCc1ccccc1)c1ccc(Cl)cc1 the results were Mtb growth 12%, Mtb bLac sens -7 and RecA splice inh -1.6.
Screening CC(Sc1nnc(-c2ccco2)n1C)C(=O)N1C(C)CCCC1C (stereo unspecified) returned Mtb bLac sens -36 and RecA splice inh -0.6.
For O=C(Cn1c(C(F)(F)F)nc2ccccc21)OCC(=O)c1c[nH]c2ccccc12 the results were Mtb growth -5%, Arbovirus inh 1, Mtb bLac sens 4, RecA splice inh 3.6 and YopH inh -33.
For CCOC(=O)c1ccc(NC(=S)Nc2cccc(C)n2)cc1 the results were Mtb growth inconclusive, Arbovirus inh -10, Mtb bLac sens 32, RecA splice inh -1.8 and YopH inh -36.
For O=C(O)C1=C[C@@H](c2ccc(C(F)(F)F)cc2)C[C@@H](OCCCCO)O1 the results were Mtb growth -5%, Mtb bLac sens -4 and RecA splice inh 2.6.
`COc1cccc(N=C(N)N=C(N)N)c1` gave Mtb growth -3%, Mtb bLac sens -3 and RecA splice inh -0.1.
O=C(CN1CCOCC1)Nc1ncc(Cc2cccc(Cl)c2Cl)s1 was read as Mtb growth 4%, Arbovirus inh -1, Mtb bLac sens 55, RecA splice inh 3.0 and YopH inh -12.
`c1ccc(-c2noc(CCC3CCCC3)n2)cc1` gave Mtb growth -8%, Arbovirus inh 2, Mtb bLac sens -2 and RecA splice inh 0.6.
For CSc1ccc(/C=N/NC(=O)CN2CCN(Cc3ccccc3)CC2)cc1 the results were Mtb growth 8%, Arbovirus inh 15, Mtb bLac sens 4, RecA splice inh -2.7 and YopH inh 11.
Screening CCNC(=O)N1c2ccc(OC)cc2C(C)=CC1(C)C returned Mtb growth -4%, Arbovirus inh 4, Mtb bLac sens -2 and YopH inh -36.
For O=C(NC1CCCC1)C(c1ccco1)N(C(=O)c1csnn1)c1ccccc1 (stereo unspecified) the results were Mtb bLac sens 1 and RecA splice inh -0.1.
Screening COc1cccc(NC(=S)N(CCCN2CCCC(C)C2)Cc2cccs2)c1 (stereo unspecified) returned Mtb growth 2%, Arbovirus inh 16, Mtb bLac sens -2 and RecA splice inh -1.9.
O=C(NCc1cccnc1)c1cccc(S(=O)(=O)N2CCCCC2)c1 was read as Mtb growth -8%, Arbovirus inh 2, Mtb bLac sens 3, RecA splice inh -3.1 and YopH inh -18.
`COc1cccc(NC(=O)c2ccc(CN3CCc4ccccc4C3)cc2)c1` gave Mtb bLac sens -1 and RecA splice inh 0.0.
O=CN1CCN(S(=O)(=O)c2ccc(S(=O)(=O)NC3CCCCC3)cc2)CC1 was read as Mtb bLac sens -3 and RecA splice inh -0.6.
For Cc1ccc(Cn2ncc3c(NCCCN4CCOCC4)ncnc32)cc1 the results were Mtb growth -8%, Arbovirus inh 7, Mtb bLac sens 1 and YopH inh -32.
For COc1ccc(CNC(=O)CN(Cc2ccc(F)cc2)C(=O)c2csnn2)cc1 the results were Mtb growth 6%, Arbovirus inh 7, Mtb bLac sens 3 and RecA splice inh -4.8.
Cc1nnc(NC(=O)CSCc2c(C)noc2C)s1 was read as Mtb bLac sens 0 and RecA splice inh 0.4.
CC1CN=C(NCc2ccc(F)cc2)S1 (stereo unspecified) was read as Mtb growth -5%, Arbovirus inh 14, Mtb bLac sens -6 and RecA splice inh 2.7.
`COc1cccc(C2=NO[C@@H]3C(=O)N(c4ccc5c(c4)OCCO5)C(=O)[C@H]23)c1OC` gave Mtb growth 0%, Arbovirus inh 7, Mtb bLac sens -3, RecA splice inh 8.1 and YopH inh -44.
`O=C(NN1C(=O)/C(=C\c2cccnc2)SC1=S)C(c1ccccc1)c1ccccc1` gave Mtb growth -6%, Arbovirus inh -1, Mtb bLac sens -6, RecA splice inh 4.9 and YopH inh -65.
`Cc1cc(C(=O)NNc2ccccc2F)no1` gave Mtb growth 63%, Mtb bLac sens 95 and RecA splice inh -3.9.
`CS(=O)(=O)Nc1cccc(C(=O)CC2(O)C(=O)Nc3ccccc32)c1` (stereo unspecified) gave Mtb growth 0%, Arbovirus inh 10, Mtb bLac sens -6 and YopH inh -18.
Screening CCN1C(=O)/C(=C/C=C2/Sc3ccc4ccccc4c3N2CCO)SC1=S returned Mtb growth -2%, Arbovirus inh 1, Mtb bLac sens 0, RecA splice inh 0.9 and YopH inh -24.
CSc1ccccc1C(=O)NC1CCCN(c2ccc(C(F)(F)F)cn2)C1 (stereo unspecified) was read as Mtb bLac sens 49 and RecA splice inh 6.7.
For COc1ccccc1CN(C)C(=O)c1cccc(S(=O)(=O)N2CCN(Cc3ccccc3)CC2)c1 the results were Mtb bLac sens 1 and RecA splice inh 7.2.
For Cc1ccccc1-n1c(=O)/c(=C\c2ccco2)s/c1=C(/C#N)C(=O)Nc1ccccc1 the results were Mtb growth 0%, Arbovirus inh -3, Mtb bLac sens -4, RecA splice inh -1.1 and YopH inh -35.
Cc1cc(C)cc(NC(=O)Nc2ccccc2N2CCCCC2)c1 was read as Mtb growth -4%, Mtb bLac sens -5 and RecA splice inh -4.4.
Screening O=c1c2cc(Br)ccc2nc(-c2cccc(C(F)(F)F)c2)n1O returned Mtb growth inconclusive, Arbovirus inh -27, Mtb bLac sens 97, RecA splice inh -1.6 and YopH inh -39.
Screening CC1CCCN(S(=O)(=O)c2ccc3c(c2)c(=O)nc2ccc(Cl)cn23)C1 (stereo unspecified) returned Mtb bLac sens 3 and RecA splice inh -23.
CCOC(=O)c1c(NC(=O)CSC(=S)N(C)C)sc(C)c1C was read as Mtb growth 5%, Arbovirus inh 5, Mtb bLac sens 6, RecA splice inh 0.1 and YopH inh -34.
For O=S(=O)(/N=C(/Nc1ccccc1)C(F)(F)F)c1ccccc1 the results were Mtb growth 2%, Arbovirus inh 4, Mtb bLac sens 5, RecA splice inh 2.9 and YopH inh -27.
For Cn1c(=O)oc2cc(S(=O)(=O)NCc3ccco3)ccc21 the results were Mtb growth 4%, Arbovirus inh -1, Mtb bLac sens -4, RecA splice inh 2.5, YopH inh -37 and Arbovirus inh repeat 2.
`Cc1cnc(C(=O)NC2CC(C)(C)Cc3c2cnn3-c2ccccc2)cn1` (stereo unspecified) gave Mtb bLac sens -9 and RecA splice inh 1.4.

Not a retest: 9 of the compounds above.
For COc1ccccc1CN(C)C(=O)c1cccc(S(=O)(=O)N2CCN(Cc3ccccc3)CC2)c1 the results were Mtb bLac sens 1 and RecA splice inh 7.2.
For Cc1ccccc1-n1c(=O)/c(=C\c2ccco2)s/c1=C(/C#N)C(=O)Nc1ccccc1 the results were Mtb growth 0%, Arbovirus inh -3, Mtb bLac sens -4, RecA splice inh -1.1 and YopH inh -35.
Cc1cc(C)cc(NC(=O)Nc2ccccc2N2CCCCC2)c1 was read as Mtb growth -4%, Mtb bLac sens -5 and RecA splice inh -4.4.
Screening O=c1c2cc(Br)ccc2nc(-c2cccc(C(F)(F)F)c2)n1O returned Mtb growth inconclusive, Arbovirus inh -27, Mtb bLac sens 97, RecA splice inh -1.6 and YopH inh -39.
Screening CC1CCCN(S(=O)(=O)c2ccc3c(c2)c(=O)nc2ccc(Cl)cn23)C1 (stereo unspecified) returned Mtb bLac sens 3 and RecA splice inh -23.
CCOC(=O)c1c(NC(=O)CSC(=S)N(C)C)sc(C)c1C was read as Mtb growth 5%, Arbovirus inh 5, Mtb bLac sens 6, RecA splice inh 0.1 and YopH inh -34.
For O=S(=O)(/N=C(/Nc1ccccc1)C(F)(F)F)c1ccccc1 the results were Mtb growth 2%, Arbovirus inh 4, Mtb bLac sens 5, RecA splice inh 2.9 and YopH inh -27.
For Cn1c(=O)oc2cc(S(=O)(=O)NCc3ccco3)ccc21 the results were Mtb growth 4%, Arbovirus inh -1, Mtb bLac sens -4, RecA splice inh 2.5, YopH inh -37 and Arbovirus inh repeat 2.
`Cc1cnc(C(=O)NC2CC(C)(C)Cc3c2cnn3-c2ccccc2)cn1` (stereo unspecified) gave Mtb bLac sens -9 and RecA splice inh 1.4.

The results go on.
`CCn1nc(C)c(CN2CCC(C(=O)Nc3cccc(-c4cccc(Cl)c4)c3)CC2)c1C` gave Mtb bLac sens 4 and RecA splice inh -1.2.
`CCN1CCCC1CNC(=O)CS(=O)(=O)Cc1nc(-c2ccccc2C)oc1C` (stereo unspecified) gave Mtb growth 7%, Arbovirus inh -18, Mtb bLac sens 0, RecA splice inh 0.0 and YopH inh -19.
Screening COc1ccccc1NC(=O)COc1ccc(Br)cc1CO returned Mtb growth 11%, Arbovirus inh -4, Mtb bLac sens 8, RecA splice inh -1.3 and YopH inh -21.
CCOC(=O)c1c(C)[nH]c(C)c1S(=O)(=O)N(C)CC(=O)Nc1cc(C)ccc1OC was read as Mtb bLac sens -1 and RecA splice inh -0.2.
Screening CC(OC(=O)CCSc1ccccc1)C(=O)Nc1ccc(S(N)(=O)=O)cc1 (stereo unspecified) returned Mtb bLac sens -6 and RecA splice inh 0.6.
For CC(C)N(C(=O)CSc1nc2ccccc2n1Cc1ccccc1)C(C)C the results were Mtb growth -3%, Arbovirus inh -4, Mtb bLac sens -7, RecA splice inh -3.7 and YopH inh -22.
For CCOCCCn1c(=O)c(NC(=O)c2ccc(OCC)cc2)c2n(c1=S)CCCCC2 the results were Mtb growth -4%, Arbovirus inh -6, Mtb bLac sens 0, RecA splice inh 0.6 and YopH inh -34.
For CCCCOc1ccc(C(=O)NCC(=O)NCc2ccccn2)cc1 the results were Mtb bLac sens -12 and RecA splice inh 1.9.
`O=C(OCc1ccccc1)c1cccc(-c2nnn(Cc3ccccc3)n2)c1` gave Mtb growth 76%, Arbovirus inh -10, Mtb bLac sens 98, RecA splice inh 5.3 and YopH inh -19.
O=C(c1cc2ccccn2n1)N1CCN(c2ccccn2)CC1 was read as Mtb growth -4%, Arbovirus inh 8, Mtb bLac sens 2, RecA splice inh -2.2, YopH inh -46 and Arbovirus inh repeat 0.
`Cc1ccc(-c2nc(N)sc2CC(=O)OCC(=O)NCCC(C)C)cc1` gave Mtb growth -2%, Arbovirus inh 0, Mtb bLac sens 0, RecA splice inh 2.6 and YopH inh -24.
`Cn1c(SCc2ccc(Br)cc2)nnc1-c1ccncc1` gave Mtb growth 0%, Arbovirus inh 0, Mtb bLac sens 4, RecA splice inh 1.2 and YopH inh -39.
`COc1ccc(C(=O)NCC(=O)N/N=C/C(C)=C/c2ccco2)cc1OC` gave Mtb growth 20%, Arbovirus inh -8, Mtb bLac sens 95, RecA splice inh 0.4 and YopH inh -27.
`CNC(=O)c1cccn1-c1ccsc1C(=O)OC` gave Mtb growth 1%, Arbovirus inh -6, Mtb bLac sens -9, RecA splice inh 0.7 and YopH inh -10.
`CC(=O)N(C)N1c2ccccc2CCc2ccccc21` gave Mtb growth -1%, Arbovirus inh -2, Mtb bLac sens 4 and RecA splice inh -1.1.
Screening COc1ccc(-c2cnnc(N/N=C/c3ccc(O)c(O)c3)n2)cc1 returned Mtb growth -14%, Arbovirus inh -26, Mtb bLac sens 3, RecA splice inh 1.4 and YopH inh -48.
`COc1ccc2c(c1)C(c1ccc([N+](=O)[O-])cc1)=NNC(c1ccco1)=N2` gave Mtb growth -10%, Arbovirus inh -11, Mtb bLac sens 9, RecA splice inh 2.5 and YopH inh 0.
`O=C(COC(=O)c1ccccc1NC(=O)c1ccccc1)c1ccc([N+](=O)[O-])cc1` gave Mtb growth -4%, Arbovirus inh 2, Mtb bLac sens -4, RecA splice inh -3.9 and YopH inh -31.
`CC(=O)Nc1ccc(S(=O)(=O)N(Cc2ccccc2)c2ccccc2F)cc1` gave Mtb growth -1%, Arbovirus inh 8, Mtb bLac sens -5 and RecA splice inh 3.3.
c1ccc2cc(CN3CCOCC3)ccc2c1 was read as Mtb growth -11%, Arbovirus inh 9, Mtb bLac sens 5, RecA splice inh -1.2 and YopH inh 6.
CCOc1cc(C(=O)N2CCOCC2)ccc1OCc1ccccc1 was read as Mtb growth -5%, Arbovirus inh -8, Mtb bLac sens -11, RecA splice inh -0.3 and YopH inh -25.

Not all compounds are listed; count on the stated rates, not on these rows.
